TRPML1 agonist – qHTS for Agonists of the Human Mucolipin Transient Receptor Potential 1 (TRPML1); Mucolipin-1 (Homo sapiens), Q9GZU1; TRPML1-expressing cells, Ca2+ dye fluorescence, FDSS; host cell line not named in the record; reference of the full effect not given here; 410,000 tested, 0.12% active; activation, % (test concentration not listed); in the data active = activation above about 50%; inconclusive = about 30% to 50%; inactive = below about 30%; also: 0% is about no effect; the text of the record puts the active cut at 80%
Target sequence (Q9GZU1 whole entry, looked up): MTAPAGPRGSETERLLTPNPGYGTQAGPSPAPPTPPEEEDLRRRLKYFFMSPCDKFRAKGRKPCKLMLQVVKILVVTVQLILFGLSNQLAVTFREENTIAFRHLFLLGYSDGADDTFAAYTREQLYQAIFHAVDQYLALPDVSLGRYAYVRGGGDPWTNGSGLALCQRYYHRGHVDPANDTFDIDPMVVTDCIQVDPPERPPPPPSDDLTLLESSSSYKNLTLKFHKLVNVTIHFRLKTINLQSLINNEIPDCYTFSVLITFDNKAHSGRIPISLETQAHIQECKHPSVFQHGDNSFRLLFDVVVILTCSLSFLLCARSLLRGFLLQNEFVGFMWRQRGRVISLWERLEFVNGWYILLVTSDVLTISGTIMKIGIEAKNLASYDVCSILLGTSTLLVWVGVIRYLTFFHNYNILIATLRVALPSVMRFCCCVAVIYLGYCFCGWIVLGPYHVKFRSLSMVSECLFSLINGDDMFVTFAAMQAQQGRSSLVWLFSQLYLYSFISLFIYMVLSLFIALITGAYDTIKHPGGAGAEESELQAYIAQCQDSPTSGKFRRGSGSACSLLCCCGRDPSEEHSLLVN
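Cells: TRPML1-DL, 1X Tet inducer, ~16 h at 37 degrees C/5% CO2. Dye: ABD Ca8 no-wash + quencher, 45-90 min RT. Read: 10 s baseline, compound add, 110 s agonist phase; 54-4 EC80 (4uM final), 110 s antagonist phase.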
ClpP mod – qHTS Assay for Activators of ClpP; ATP-dependent Clp protease proteolytic subunit (Bacillus subtilis (strain 168)), P80244; purified B. subtilis ClpP, FRET peptide cleavage, 20 min; Potency, µM (doses to about 57.5 µM), without a hit: top-dose activity change, negative = active; 340,000 tested, 1.9% active; active = well fitted falling curve with a large enough effect; inconclusive = small, poorly fitted or top-dose-only effect; inactive = no such curve, though single readings can be large or run the other way; also: potency is read from the fitted curve at half-maximal effect; the source files actives as falling curves though it sought activators and does not explain the sign; nearly all actives have a fitted effect of over 65% in size; many hits overshoot -100%
Target sequence (P80244 whole entry, looked up): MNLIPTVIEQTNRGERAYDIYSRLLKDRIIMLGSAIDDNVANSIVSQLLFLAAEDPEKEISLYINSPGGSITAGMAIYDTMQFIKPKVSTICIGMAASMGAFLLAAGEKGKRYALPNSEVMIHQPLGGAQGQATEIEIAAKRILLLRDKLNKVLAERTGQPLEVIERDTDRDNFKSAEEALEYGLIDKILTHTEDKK
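Buffer: 100 mM Tris/HCl pH8, 100 mM KCl, 0.05% low protease BSA, 2.5% glycerol, 0.01% Tween-20. ClpP 10 microg/mL final; 20 min RT; delta FRET normalized to ADEP and DMSO controls.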
Menin MLL FP FL – qHTS Assay for Inhibitors Targeting the Menin-MLL Interaction in MLL Related Leukemias: Competition With Fluorescein Labeled MLL-derived Peptide; 290,000 tested, under 10 active; FP activity change, % at 61.4 µM; AID 1766, 2009; Fluorescence polarization, fluorescein-MLL peptide displacement from menin; inconclusive = falling polarisation curve, or a change in total fluorescence; inactive = total fluorescence flat and polarisation flat or rising; no compound was filed as active; the % refers to the polarisation; negative = inhibition;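 also: % of control where 0% means no effect; inhibitors lower the polarisation; unlabelled MLL peptide was the positive control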
TRPML1 blocker – qHTS for Inhibitors of the Human Mucolipin Transient Receptor Potential 1 (TRPML1); Mucolipin-1 (Homo sapiens), Q9GZU1; TRPML1-inducible cells, Ca2+ dye fluorescence, FDSS; active compounds read low; inhibition of EC80 agonist-evoked calcium signal; activity change, negative = inhibition, % (concentration not given with the values); 390,000 tested, 0.02% active; AID 624415, 2012; in the data active means activity change below about -50%; inconclusive means about -30% to -50%; inactive means above about -30%;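 also: stimulus is agonist 54-4 at its EC80 concentration; % is scaled to controls: 0 for no effect and ±100 for the full control effect; the text of the record puts the active cut at -80%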
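Tet-induced TRPML1-DL cells loaded with Ca8 no-wash calcium dye were read kinetically on FDSS. Compound addition was followed by EC80 agonist 54-4 (4 uM final); inhibition was read over 110 s.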
gsp ag – qHTS for Agonist of gsp, the Etiologic Mutation Responsible for Fibrous Dysplasia/McCune-Albright Syndrome: qHTS. gsp mutant cells, cAMP HTRF, 30 min; control for the full effect not named in the record. 340,000 tested, 0.13% active. Potency, µM (series often up to 76.9 µM), for the others: top-dose activation (cAMP increase), most hits filed as activators; active = well fitted activation curve with a large enough effect; inconclusive = small, poorly fitted or top-dose-only effect, or another doubt; inactive = no such curve, though single readings can be large or run the other way; cell line not stated here;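 also: phosphodiesterase inhibitor Ro 20-1724 added with compounds to block cAMP breakdown; potency is read from the fitted curve at half-maximal effect; nearly all actives have a fitted effect of over 60% in size; about a fifth of the inactives were tested at one dose only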
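Cells stably selected in G418 were plated at 2000/well, grown 16-24 hr, then given compounds in DMSO with the PDE inhibitor […] (300 uM solution added) for 30 min at 37C; cAMP was read by HTRF.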
gsp antagonist – qHTS for Antagonists of gsp, the Etiologic Mutation Responsible for Fibrous Dysplasia/McCune-Albright Syndrome: qHTS | gsp-mutant cells, cAMP HTRF, 30 min; control for the full effect not named in the record | Potency, µM (series often up to 76.9 µM), for the others: top-dose activity change, negative = inhibition, usual class: inhibitors | 340,000 tested, 0.4% active | AID 624288, 2012; active = falling curve of any shape with a large fitted effect; inconclusive = falling curve, mostly with a smaller effect; inactive = flat or rising curve; cell line not stated here;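 also: intracellular cAMP measured with PDE inhibitor Ro 20-1724 present during compound exposure; potency is read from the fitted curve at half-maximal effect; % is scaled to controls: 0 for no effect and ±100 for the full control effect; nearly all actives have a fitted effect of over 65% in size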
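Measurement of cellular cAMP by homogeneous time-resolved fluorescence following a 30 min compound exposure at 37C. The PDE inhibitor […] was present throughout; the assay buffer was DPBS with 0.05% BSA and 0.005% Tween 20.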
An asterisk follows results filed as active; ? = inconclusive; / = not tested or not shown; & = joins results of further samples; ! = not confirmed by another sample; [ ] = dose if it differs, or a comment. Outcome played no part in choosing rows. About 2.1% of those tested had a hit in this group.

Compound	TRPML1 agonist	ClpP mod	Menin MLL FP FL	TRPML1 blocker	gsp ag	gsp antagonist
COc1ccccc1N1CCN(C(CNC(=O)C(=O)NCc2cccnc2)c2cccnc2)CC1 (configuration not stated)	1.4	-1.6%	/	6	/	/
O=C(COc1ccccc1O)Nc1ccc(Cl)cc1	1.1	-2.5%	0.8	15	18%	35µM*
COc1ccc(NC(=O)CN(C)C(=O)C2CC(=O)N(c3cccc4ccccc34)C2)cc1 (configuration not stated)	0.2	-0.3%	/	-18	-46%[inhibitor]	9%
Cc1ccccc1CN(C)CC(=O)Nc1ccccc1-c1ccccc1	2.5	0.5%	4.3	20	5%	-15%
Cc1nc(C)c(-c2ccc(SCC(=O)Nc3ccc(C)c(F)c3)nn2)s1	1.0	-0.9%	/	21	/	/
O=C(Nc1ccccc1NC(=O)c1ccccc1F)c1ccccc1F	-0.3	/	-0.2	0	-16%	8%
O=C(CN1C(=O)C(=O)c2ccccc21)NCCc1ccccc1	1.0	-0.7%	-0.7	-16	3%	-8%
COC(=O)CCC(=O)OC1(C)C(=O)C=C2C=C3CCCN3C=C2C1=O (configuration not stated)	0.2	0.6%	-4.8[11.7 µM]	14	/	-3%
Cc1ccnc(NC(=O)CC(c2ccccc2)c2ccccc2)n1	-0.3	-0.6%	-6.5	-4	-12%	-4%
CCOC(=O)c1sc(N/N=C/c2ccc(N(C)C)cc2)nc1C	1.4	-26%	2.8	?	-29%	-26%
C=CCNC(=S)N/N=C/c1cn(C)c2ccccc12	0.2	-7.1%	4.2	5	6%[15.4 µM]	14%
COc1cc(-c2ccc(NC(=O)CN3CCC(C)CC3)c(OC)c2)ccc1NC(=O)CN1CCC(C)CC1	0.2	-6.1%	-6.8	15	-10%	11%
Cc1ccc(/C=N/n2c(-c3ccncc3)n[nH]c2=S)o1	-0.3	/	-3.9	8	-10%	-7%
CCc1cnc2c(c1SCC(=O)Nc1ccc(Cl)cc1)c(=O)n(C)c(=O)n2C	0.4	-4.0%	/	-14	/	/
O=C(Nc1ccc(Cl)cc1)c1csc(-c2ccncc2)n1	0.9	/	-5.8	9	-5%[15.4 µM]	-22%
COc1ccc(OC)c(-c2cc(C(=O)N3CCCc4ccccc43)no2)c1	2.6	-1.2%	5.1	6	1%	-20%
O=C(CN1CCc2ccccc21)NN1CC(=O)N(c2ccccc2)CC1=O	-0.6	-14%	0.1	15	0%	-4%
COc1ccc(CCNC(=O)c2c3c(nc4ccccc24)C(=O)N(C2CCCCC2)C3)cc1OC	-0.4	-0.5%	/	16	/	/
O=C(OCC(=O)N1CCOCC1)c1ccccc1OCc1ccccc1	-0.4	-8.6%	/	5	-120%[inhibitor]	14%
Cc1ccc(-c2cc(C(=O)N/N=C/c3ccccc3O)n[nH]2)o1	0.1	/	12	5	-9%	?
O=C(Nc1ccc2c(c1)OCO2)c1cc2n(n1)C(C(F)(F)F)CC(c1ccccc1)N2 (configuration not stated)	0.0	-1.8%	-1.4	-9	17%	13%
CC[C@@H]1C=C(C(=O)O)[C@H](c2ccc(Br)cc2)N1S(=O)(=O)c1ccc(C)cc1	-0.9	1.8%	/	-12	/	-4%
O=C(CSc1nnnn1-c1cccc2c1CCCC2)NC1CCCC1	-0.7	0.6%	-8.1	8	-16%	-35%
CC(C)(C)OC(=O)NCCCCC1=CC2=CC(=O)C(C)(O)C(=O)C2=CO1 (configuration not stated)	0.3	1.7%	-7.4	-2	34%	2%
Cn1ccc(C(=O)OCC(=O)Nc2cccc(Cl)c2)n1	0.7	/	-4.4	3	5%[15.4 µM]	11%

gsp antagonist, hit marks shown above.
smiles	Menin MLL FP FL	TRPML1 blocker	gsp ag	gsp antagonist
O=C(COc1ccccc1O)Nc1ccc(Cl)cc1	0.8	15	18%	35µM*

Continued.
Compound	TRPML1 agonist	ClpP mod	Menin MLL FP FL	TRPML1 blocker	gsp ag	gsp antagonist
CCOC(=O)c1c(-c2ccccc2)nc2cc(C)ccn12	1.5	-23%	-1.5	46	-31%[inhibitor]	-8%
COC(=O)C1=C(O)/C(=C\c2cc(C)n(-c3ccc(F)cc3)c2C)N=C1C	0.1	/	?	0	-2%[15.4 µM]	1%
COc1ccccc1-c1c(C)nn2c(C)cc(C)nc12	-1.5	1.0%	0.7	2	21%	1%
O=CN1CCN(C(=O)C(=O)c2cn(CC(=O)N3CCCCC3)c3ccccc23)CC1	-0.6	1.6%	0.6	-4	17%	13%
CCOCCCn1c(=NC(=O)c2cccnc2)c(C(=O)OCC)cc2c(=O)n3ccccc3nc21	-0.1&-1.2	20µM*!	0.5	42&-2	?	-10%&10%
O=C(/C=C/c1cccc(Cl)c1)Nc1ncccn1	-0.3	0.4%	3.9	-7	-60%[inhibitor]	9%
Cc1cccc(C)c1N1CCN(c2nc(N(C)C)oc(=O)c2C#N)CC1	0.0	0.0%	1.3	-4	15%	4%
CSc1nsc(SCC(=O)Nc2nncs2)n1	0.9	/	-1.0	-22	16%[15.4 µM]	-12%
Cc1cc(N2CCOCC2)n2nc(-c3cccc(F)c3)cc2n1	0.8	?	0.8	25	-23%	31%[activator]
CCCS(=O)(=O)N1CCN(Cc2ccccc2OCC)CC1	-0.4	1.8%	1.2	-7	0%	-6%
COCCN(Cc1cc2cc(C)ccc2n2nnnc12)C(=S)Nc1cccc(C)c1	0.7	0.2%	5.9	8	-9%	0%
CCn1c(O)c(C=Nc2ccccc2)oc1=S	-0.1	-1.8%	2.8	-3	-25%	0%
O=C(CNC(=O)c1ccco1)N/N=C/c1ccc(C(=O)O)cc1	-0.1	/	-0.4	-2	0%[15.4 µM]	4%
Cc1ccc(C)c(OC(=O)c2cccnc2)c1	-0.7	-0.9%	-3.3	2	8%	4%
CN(Cc1ccccc1)C(=O)c1nc2ccccn2c1CNCCOc1cccnc1	0.9	-6.8%	1.8	18	?	4%
COc1cc(C(=O)N2CCN(Cc3ccccn3)CC2)cc(OC)c1OC	0.7	-0.4%	-1.7	7	10%	8%
COc1ccccc1NC(=O)CSc1nc2ccccc2nc1N1CC(C)OC(C)C1 (configuration not stated)	2.4	-21%	6.3	15	-17%	-26%
C[C@H](CO)N1C[C@H](C)[C@H](CN(C)C(=O)Nc2ccc(F)cc2)Oc2ccc(NC(=O)NC3CCCCC3)cc2CC1=O	-0.3	-1.2%	/	13	?	-4%
Nc1c(Cl)cc(Cl)cc1C(=O)OCC(=O)NC1CC1	-0.5	8.9µM*	-0.2	-7	20%	-13%
CCOC(=O)c1cc(S(=O)(=O)NCc2ccc(OC)cc2)[nH]n1	-1.1	-3.0%	/	-30	/	/
CCOc1ccc(NC(=O)CSc2nnc(C)n2CC2CCCO2)cc1 (configuration not stated)	-0.4	0.0%	0.0	4	-3%	11%
COc1ccc(CC(=O)N2CCN(c3ccccc3OC)CC2)cc1	0.0	/	-2.2	3	1%	3%
COc1ccc(Cl)cc1NC(=O)Cn1c(=O)oc2ccccc21	-1.5	-0.7%	10	1	21%[15.4 µM]	-24%
COc1ccc(N/C=C\C(=O)c2ccc3ccccc3c2)cc1	0.7	2.0%	-2.9	-7	-27%	8%
CCCc1cc(=O)oc2cc(OCC(=O)NC(Cc3ccc(Cl)cc3)C(=O)O)ccc12 (configuration not stated)	/	5.0%	0.7	/	/	0%
CN(C)c1ccc(/C=C2\SC(=O)N(CC(O)Cn3c4ccccc4c4ccccc43)C2=O)cc1 (configuration not stated)	9.6	0.6%	?	-1	-37%[inhibitor]	12%
CCOCCc1nn2c(=O)cc(COC(=O)c3ccc(NC(=O)C4CCCCC4)cc3)nc2s1	2.0	-3.8%	/	-11	/	/
O=C(CCCCCn1c(=S)[nH]c2ccc(N3CCOCC3)cc2c1=O)NC1CCN(Cc2ccccc2)CC1	-1.2	-0.1%	4.9	-12	3%[15.4 µM]	-20%
COc1ccc(Cn2c(CCC(=O)Nc3ccc(CC#N)cc3)nc3cccnc32)cc1	1.8	-0.5%	0.3	-1	16%	28%
O=C1NCCN1CCNS(=O)(=O)c1cc(C(F)(F)F)cc(C(F)(F)F)c1	-0.6	0.8%	/	15	-20%	2%
CN(C)CCNC(=O)CN1N=C(c2ccccc2)CCC1=O	0.0	0.1%	/	3	/	/
CCC(=O)N1CCN=C1SCc1cccc(F)c1	0.7	0.6%	/	1	?	11%
CCn1cc(Cl)c(C(=O)NNC(=O)CCn2nc(C)c([N+](=O)[O-])c2C)n1	0.3	0.7%	5.2	-12	-5%	6%
COc1ccc(CCNC(=O)C2CCCN(S(C)(=O)=O)C2)cc1OC (configuration not stated)	0.6	-1.6%	0.9	-5	-4%	6%
CCN(CC(=O)NCc1cccs1)C(=O)/C=C/c1ccc(C)cc1	1.8	1.0%	/	77	?	3%
CC1CC(=O)NN=C1c1cccs1 (configuration not stated)	4.4	-2.7%	0.5	-2	2%	10%
Cc1cc(Br)cc2c1N(C)C(=O)C2(c1ccc(O)cc1)c1ccc(O)cc1	1.2	0.5%	/	7	-23%	-1%
Cn1c(NC(=O)CC(C)(C)C)cc(=O)n(C)c1=O	-0.8	-1.0%	-0.6	7	-5%	4%
Fc1ccc(Nc2nc(Oc3ccccc3F)nc(N3CCCC3)n2)cc1	0.7	1.6%	-3.6	0	-8%	-10%
COCc1ccc2oc(C(=O)O)cc2c1	-0.7	0.0%	-1.7	-5	6%	14%
O=C(NCCc1ccccc1)c1nnc(CS(=O)(=O)c2ccccc2)o1	1.7	0.2%	-1.4	11	?	4%
N#C/C(=C\c1ccc(C#N)cc1)C(=O)c1ccccc1	-0.6	-2.9%	0.9	34	14%	-9%
Cc1cccc(OCC(=O)O/N=C(\N)c2ccc(Br)cc2)c1	0.7	/	-1.5	-2	-2%[15.4 µM]	-3%
CC(C)(C)c1cc(=O)n2[nH]c(N)nc2n1	-0.5	/	-0.3	5	-3%	0%

Screens from PubChem BioAssay.
